AmpC inh no det – Promiscuous and Specific Inhibitors of AmpC Beta-Lactamase (assay without detergent); P00811; AmpC nitrocefin hydrolysis, absorbance 480 nm, no detergent; potencies from a single point are estimates; Potency, µM (titrated, usually from 28.7 µM), for the others: at the top dose activity change, negative = inhibition; hit rate 1.8% among 71,000; AID 585, 2007; active = falling curve, for most hits resting on a single point; inconclusive = weak or doubtful change; inactive = flat or rising curve; further: % of control where 0% means no effect; about half of the hits show no inhibition at the top dose; a quarter of the inactives give rising signals
Target sequence (P00811 whole entry, looked up): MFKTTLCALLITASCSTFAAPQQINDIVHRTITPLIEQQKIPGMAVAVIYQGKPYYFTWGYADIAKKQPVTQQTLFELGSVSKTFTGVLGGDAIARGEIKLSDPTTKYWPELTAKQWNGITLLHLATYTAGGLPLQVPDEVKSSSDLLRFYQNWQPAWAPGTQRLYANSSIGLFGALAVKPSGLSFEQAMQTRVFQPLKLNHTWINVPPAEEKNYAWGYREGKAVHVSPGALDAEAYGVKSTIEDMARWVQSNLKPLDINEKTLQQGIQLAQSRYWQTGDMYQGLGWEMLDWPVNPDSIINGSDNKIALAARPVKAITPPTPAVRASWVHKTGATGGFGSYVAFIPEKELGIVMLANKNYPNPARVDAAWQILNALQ
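Enzyme, pH 7.0 phosphate. Compound titrations were pre-incubated with AmpC for 15 min at room temperature before nitrocefin (stock 800 uM) addition; product formation was recorded at 480 nm every 20 s for 4 min.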
Numbers without * were called inactive; [ ] = another dose, or the depositor's remark. Potency means the concentration at half of the fitted maximal effect.

What do the screens show for `CC(C)c1nnc(NC(=O)C2CCCN2S(=O)(=O)c2ccc(Cl)cc2)s1` (stereo not drawn)?
AmpC inh no det: 10%

Results for COC(=O)c1ccccc1NS(=O)(=O)c1ccc(O)c(C(=O)O)c1 ?
AmpC inh no det: -20%

What do the screens show for `CC1CCCC(C)N1C(=O)CSc1nnc(C2CCCCC2)o1` (stereo not drawn)?
AmpC inh no det: 32%

Results for O=C1CSC(c2ccccc2F)N1c1cc(Cl)ccc1O (stereo not drawn) ?
AmpC inh no det: -21%

How did CC1=C/C(=C\c2ccc3c(c2)OCO3)C(=O)S1 do in these assays?
AmpC inh no det: 13µM*

How did C=CCn1c(SCC(=O)Nc2sc(C)c(C)c2C(=O)OCC)nnc1-c1sc(N)nc1C do in these assays?
AmpC inh no det: 105%

How did CCOC(=O)N1CCN(C(=O)c2ccc3c(c2)N(CC)CCS3)CC1 do in these assays?
AmpC inh no det: 92%

How did COc1cccc(N2C(=O)C3CCCN3C2c2ccc(N(C)C)cc2)c1 (stereo not drawn) do in these assays?
AmpC inh no det: 3%

How did CCCNC(=O)c1c(N)n(-c2cccc(OC)c2)c2nc3ccccc3nc12 do in these assays?
AmpC inh no det: 126%

How did CC1CCC(C(C)C)C(OC(=O)COC(=O)c2ccc(=O)[nH]c2)C1 (stereo not drawn) do in these assays?
AmpC inh no det: 54%

What do the screens show for `CC1(C)CC(=O)C2=C(C1)OC(N)=C(C#N)C2Cc1ccccc1` (stereo not drawn)?
AmpC inh no det: 2%

What do the screens show for `Cc1csc(NC(=O)CSc2nc(C)nc3c2c(=O)n(C)c(=O)n3C)n1`?
AmpC inh no det: 11%

Results for N#CC1=C(N)Oc2n[nH]c(-c3ccccc3)c2C1c1cccnc1 (stereo not drawn) ?
AmpC inh no det: -9%

Results for CN1C(=O)SC(Nc2ccccc2C(=O)O)C1=O (stereo not drawn) ?
AmpC inh no det: -3%

Results for CCSc1nc(=S)n(CC)c(C)c1C(C)=O ?
AmpC inh no det: 7%

How did CCCCCOC(=O)C1=C(C)N(C)C(=O)NC1c1cc(Br)c(O)c(OC)c1 (stereo not drawn) do in these assays?
AmpC inh no det: 87%

How did Cc1cc(-n2c(C)cc(C(=O)CSc3nnc4sc5ccccc5n34)c2C)no1 do in these assays?
AmpC inh no det: 71%

How did CCOC(=O)c1sc(NC(=O)CCn2nnc3ccccc32)c(C(=O)OCC)c1C do in these assays?
AmpC inh no det: 48%

Results for Cc1cc(C(F)(F)F)nc(SCC(=O)Nc2cc(C)on2)n1 ?
AmpC inh no det: -2%

Results for Cc1cc(Oc2ccccc2)nc(-c2ccccc2)n1 ?
AmpC inh no det: 7%

How did O=C(CSc1ncn[nH]1)Nc1ccc(Cl)c(Cl)c1 do in these assays?
AmpC inh no det: 5%

How did Cc1c(NC(=O)c2cnn3c(C(F)(F)F)cc(-c4ccco4)nc23)c(=O)n(-c2ccccc2)n1C do in these assays?
AmpC inh no det: -2%

How did COc1cccc(NS(=O)(=O)c2ccc(OC)c(OC)c2)c1 do in these assays?
AmpC inh no det: 0%

How did Nc1nc(N)nc(CC(=O)O)n1 do in these assays?
AmpC inh no det: -16%[5.75 µM]

What do the screens show for `Cc1cc(NC(=O)CSc2nnc(C3CC3)n2N)no1`?
AmpC inh no det: -7%

How did Cc1ccccc1CSc1ncc(C#N)c(N)n1 do in these assays?
AmpC inh no det: -13%

Results for CC(COc1cccc2ccccc12)CN1CCN(C)CC1 (stereo not drawn) ?
AmpC inh no det: 59%

What do the screens show for `CS(=O)(=O)N1CCc2cc(-c3csc(NCC4CCCO4)n3)ccc21` (stereo not drawn)?
AmpC inh no det: 74%

Results for Cc1ccc(NC(=O)NC2CCCCC2)cc1Cl ?
AmpC inh no det: -8%

How did CCCCCCN(C(=O)CCCCCN1C(=O)NC(c2ccc(Cl)cc2)C(C(=O)OCc2ccccc2)=C1C)C(C(=O)NCCCC)c1ccc(OCC(=O)OC)c(C(=O)OC)c1 (stereo not drawn) do in these assays?
AmpC inh no det: 44%

How did COC(=O)c1ccc(NCC(=O)c2ccccc2)cc1 do in these assays?
AmpC inh no det: 11%

Results for COCCN1C(=O)c2oc3cc(C)c(C)cc3c(=O)c2C1c1ccc(O)cc1 (stereo not drawn) ?
AmpC inh no det: 31%

How did COCC(=O)N1CCC2(CCCN(Cc3nccs3)C2)CC1 do in these assays?
AmpC inh no det: -10%

How did CC(=O)NC1(c2cccc(F)c2)CCN(C(=O)Nc2ccc(C#N)cc2)CC1 do in these assays?
AmpC inh no det: 9%

What do the screens show for `Cc1cnc(Nc2nc3ccccc3o2)nc1C(=O)Nc1cccc(C(F)(F)F)c1`?
AmpC inh no det: 15%

Results for COc1ccc(OC)c(C2C(C(=O)c3ccc(C)o3)=C(O)C(=O)N2CCCN2CCOCC2)c1 (stereo not drawn) ?
AmpC inh no det: 0%

How did COc1cccc(N2CCN(C3CC(=O)N(c4ccc(Cl)cc4)C3=O)CC2)c1 (stereo not drawn) do in these assays?
AmpC inh no det: 64%

How did CCn1c(SCC(=O)c2cc(OC)ccc2OC)nnc1C1CC1 do in these assays?
AmpC inh no det: 27%

What do the screens show for `Cc1cc(C)n(CCc2nc(-c3cc4ccccc4o3)cs2)n1`?
AmpC inh no det: 101%

How did NS(=O)(=O)c1ccc(CNC(=O)c2ccc(Br)o2)cc1 do in these assays?
AmpC inh no det: -1%

Random excerpt: 5 compounds from above, in no set order.
Results for COCCN1C(=O)c2oc3cc(C)c(C)cc3c(=O)c2C1c1ccc(O)cc1 (stereo not drawn) ?
AmpC inh no det: 31%

How did CC(=O)NC1(c2cccc(F)c2)CCN(C(=O)Nc2ccc(C#N)cc2)CC1 do in these assays?
AmpC inh no det: 9%

How did COC(=O)c1ccc(NCC(=O)c2ccccc2)cc1 do in these assays?
AmpC inh no det: 11%

How did COCC(=O)N1CCC2(CCCN(Cc3nccs3)C2)CC1 do in these assays?
AmpC inh no det: -10%

How did COc1cccc(N2CCN(C3CC(=O)N(c4ccc(Cl)cc4)C3=O)CC2)c1 (stereo not drawn) do in these assays?
AmpC inh no det: 64%

Following part:
What do the screens show for `Cc1csc(NC(=O)c2c(O)c3cccc4c3n(c2=O)CCC4)n1`?
AmpC inh no det: 22%

Results for O=C(Nc1c(F)c(F)c(F)c(F)c1F)C1CCCCC1 ?
AmpC inh no det: -3%

How did O=C(CN1C(=O)NC2(CCCCCC2)C1=O)c1ccc2c(c1)OCCO2 do in these assays?
AmpC inh no det: 0%

What do the screens show for `CN(Cc1nc(-c2ccccn2)no1)S(=O)(=O)c1ccccc1`?
AmpC inh no det: 9%

Results for Cn1cccc1C(=O)N1CCC[C@@]2(CCN(c3ccccc3)C2)C1 ?
AmpC inh no det: 101%

How did O=C(CSc1nnc(Cn2c(=O)sc3ccccc32)n1CCc1ccccc1)N1CCCC1 do in these assays?
AmpC inh no det: 124%

Results for CCN(CC(=O)NC(C)C)C(=O)c1ccc(S(=O)(=O)N(C)c2ccccc2OC)cc1 ?
AmpC inh no det: 48%

Results for O=C(CCC(=O)N1CCCC1)Nc1nnc(C2CCCCC2)s1 ?
AmpC inh no det: 15%

Results for Cc1ccnc(N2CCCC(C(=O)Nc3cc(F)ccc3C)C2)n1 (stereo not drawn) ?
AmpC inh no det: 3%

Results for Cc1cnc(SCCc2ccncc2)nc1C ?
AmpC inh no det: 12%

How did CCOc1cccc(C(=O)Nc2cccc(-c3nnc(-c4ccc(C)cc4)o3)c2)c1 do in these assays?
AmpC inh no det: 42%

How did O=C(Nc1ccccc1C(=O)N1CCCC1)C1CCN(c2ncccn2)CC1 do in these assays?
AmpC inh no det: 2%

Results for CC(=O)Nc1cc(C(F)(F)F)ccc1OCC1CCCO1 (stereo not drawn) ?
AmpC inh no det: 10%

Results for CCOC(=O)N1CCC(N2Cc3cccc(C(=O)N4CC(C)CC(C)C4)c3C2=O)CC1 (stereo not drawn) ?
AmpC inh no det: 82%

Results for COc1ccc2occ(C(=O)c3ccc(N=C(C)N(C)C)cc3)c2c1 ?
AmpC inh no det: 40%

Results for CCN(CC)C(=O)c1cc(-c2ccc(Br)cc2)on1 ?
AmpC inh no det: 35%

What do the screens show for `Clc1ccc(Cl)c(OCCN2CCOCC2)c1`?
AmpC inh no det: 54%

What do the screens show for `COC(=O)c1ccc(CNC(=O)COc2ccccc2Br)o1`?
AmpC inh no det: 15%

Results for CCCCNC(=O)Nc1ccon1 ?
AmpC inh no det: 11%

Results for CCOC(=O)N1CCC(NC(=O)c2cc3c(=O)n(C)c4ccccc4c3n2C)CC1 ?
AmpC inh no det: 158%

Results for COc1ccc(S(=O)(=O)N(C(C)=O)c2ccc3oc(=O)sc3c2)cc1 ?
AmpC inh no det: 18%

Results for O=c1cc2c(n[nH]1)CCCC2 ?
AmpC inh no det: 4%

Results for Cc1cc(F)ccc1S(=O)(=O)Nc1ccccc1C(=O)Nc1ccc2[nH]c(=O)[nH]c2c1 ?
AmpC inh no det: -13%

What do the screens show for `COc1ccc(C2=C(N)c3ccccc3C2=O)cc1`?
AmpC inh no det: 6%

How did CCNC(=O)CSc1nc2ccccc2c(=O)n1CCCOC(C)C do in these assays?
AmpC inh no det: 27%

How did C=C(C)c1cccc(C(C)(C)NC(=O)N2CCN(c3ccccn3)CC2)c1 do in these assays?
AmpC inh no det: 4µM*[single pt active]

What do the screens show for `COc1ccc2c(c1)C1(Nc3ccccc3-c3nc4ccccc4n31)C(=O)N2C` (stereo not drawn)?
AmpC inh no det: 32%

Results for CSc1nnc(-c2cnccn2)n1Cc1ccccc1 ?
AmpC inh no det: 6%

How did COc1ccc(NC(=O)CSc2nnc(-c3ccco3)n2C)cc1 do in these assays?
AmpC inh no det: 14%

How did CN(N=O)c1ccc(/C=C\c2ccnc3ccccc23)cc1 do in these assays?
AmpC inh no det: -9%[5.75 µM]

How did O=P1(c2ccccc2)C=Cn2c1cc1c2CCCC1 (stereo not drawn) do in these assays?
AmpC inh no det: 21%

How did Cc1ccc(-n2c(SCC(N)=O)nnc2-c2ccccn2)cc1 do in these assays?
AmpC inh no det: -4%

How did Cc1cc(NC(=O)Cn2nnc3sc4c(c3c2=O)CCC(C(C)(C)C)C4)no1 (stereo not drawn) do in these assays?
AmpC inh no det: 1%

How did O=C1CCc2cc(S(=O)(=O)N3CCC(C(=O)NC4CCCc5ccccc54)CC3)ccc2N1 (stereo not drawn) do in these assays?
AmpC inh no det: 76%

Results for CC1(C)CCC2=C(O1)c1ccccc1C(=O)C2=O ?
AmpC inh no det: 21%

How did CN(C)c1nc(C(=O)Nc2ccccc2)nc(N(C)C)n1 do in these assays?
AmpC inh no det: 7%

What do the screens show for `CCOc1ccc(C2NC(=O)c3ccccc3O2)cc1` (stereo not drawn)?
AmpC inh no det: 2%

What do the screens show for `CC1CCCCN1C(=O)Nc1cccc(Cl)c1` (stereo not drawn)?
AmpC inh no det: -7%

What do the screens show for `O=C(Nn1c(C2CCC2)nc2ccccc2c1=O)C1CCC1`?
AmpC inh no det: -4%

How did O=C(c1noc2c1CCCC2)N1CCN(c2ccc(F)cc2)CC1 do in these assays?
AmpC inh no det: 15%

Results for C[C@@H](Cc1ccc(Cl)cc1Cl)NO ?
AmpC inh no det: -2%[5.75 µM]

What do the screens show for `C=CCNC(=O)c1ccc(OC)cc1OC`?
AmpC inh no det: -1%

How did C=CCN(C1CCCCC1)S(=O)(=O)c1ccc2c(c1)oc(=O)n2C do in these assays?
AmpC inh no det: 44%

How did Cc1ccc(C)c(NC(=O)C2CC=CCC2C(=O)O)c1 (stereo not drawn) do in these assays?
AmpC inh no det: -3%

What do the screens show for `O=C(Nc1ccccc1)c1ccc(S(=O)(=O)N2CCCC2)cc1`?
AmpC inh no det: -12%

How did CCN(CC)c1c(-c2ccccc2)c2cc(C)ccc2[nH]c1=O do in these assays?
AmpC inh no det: 9%

What do the screens show for `O=C(c1ccccc1-c1nc(-c2ccccc2)no1)N1CCCC1`?
AmpC inh no det: 49%

Results for Cc1cccc(N(C)c2cc(C)nc3ncnn23)c1 ?
AmpC inh no det: 0%

How did O=C(COc1ccc(Cl)cc1Br)N1CCN(c2ccccc2)CC1 do in these assays?
AmpC inh no det: 29%

What do the screens show for `Cc1occc1C(=O)N1CCN(Cc2ccccc2)CC1`?
AmpC inh no det: 73%

How did O=C1C(=O)N(CCCN2CCOCC2)C(c2ccccn2)/C1=C(\O)c1ccc2c(c1)OCCO2 (stereo not drawn) do in these assays?
AmpC inh no det: -5%

Results for CCOC(=O)N1CCC(N2C(=O)c3ccccc3C2Nc2cc(C(=O)OC)cc(C(=O)OC)c2)CC1 (stereo not drawn) ?
AmpC inh no det: 157%

Structural class, the compounds so far containing a COOH group.
Results for COC(=O)c1ccccc1NS(=O)(=O)c1ccc(O)c(C(=O)O)c1 ?
AmpC inh no det: -20%

Results for CN1C(=O)SC(Nc2ccccc2C(=O)O)C1=O (stereo not drawn) ?
AmpC inh no det: -3%

How did Nc1nc(N)nc(CC(=O)O)n1 do in these assays?
AmpC inh no det: -16%[5.75 µM]

How did Cc1ccc(C)c(NC(=O)C2CC=CCC2C(=O)O)c1 (stereo not drawn) do in these assays?
AmpC inh no det: -3%

Assay outcomes: PubChem, National Center for Advancing Translational Sciences (NCATS)

A portion of the library; count on the stated rates, not on these rows.
